gsp ag – qHTS for Agonist of gsp, the Etiologic Mutation Responsible for Fibrous Dysplasia/McCune-Albright Syndrome: qHTS. AID 624287, 2012. 340,000 tested, 0.13% active. Potency, µM (series often up to 76.9 µM), inactives show top-dose activation (cAMP increase), usual class: activators. gsp mutant cells, cAMP HTRF, 30 min; control for the full effect not named in the record; active = well fitted activation curve with a large enough effect; inconclusive = small, poorly fitted or top-dose-only effect, or another doubt; inactive = no such curve, though single readings can be large or run the other way; cell line not stated here;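 note: phosphodiesterase inhibitor Ro 20-1724 added with compounds to block cAMP breakdown; potency is the fitted concentration of half-maximal effect; nearly all actives have a fitted effect of over 60% in size; about a fifth of the inactives were tested at one dose only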
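Cells in DMEM/10% FBS with G418 were pretreated with compounds in DMSO plus […] (300 uM stock) for 30 min at 37C. cAMP was measured by HTRF (cAMP-d2 plus anti-cAMP antibody-K) after 30 min at room temperature.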
PINK1 modulator – A Quantitative High throughput Screen to Identify Chemical Modulators of PINK1 Expression; PINK1 immunofluorescence, high-content cytometry, 24 h; Potency, µM (doses to about 76.6 µM), for the others: at the highest dose activation (PINK1 increase), most hits filed as activators; 410,000 tested, 0.2% active; active = well fitted activation curve with a large enough effect; inconclusive = small, poorly fitted or top-dose-only effect; inactive = flat fitted curve, though single readings scatter; cell line not stated here;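 note: potency is the fitted concentration of half-maximal effect; % of control where 0% means no effect; nearly all actives have a fitted effect of over 65% in size; a mitochondrial uncoupler was the plate control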
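Compound titrations (5 concentrations, 24 h) on a stable cell line; DMSO and CCCP controls. Endpoint: fixed-cell PINK1 immunofluorescence with mitochondrial, cell and nuclear markers, scanned by microplate cytometer.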
D2 agonist – Beta-Arrestin HTS for Positive Allosteric Modulators of the Human D2 Dopamine Receptor: Agonists; D(2) dopamine receptor (Homo sapiens), P14416; DiscoveRx PathHunter D2 beta-arrestin, luminescence, 90 min; 100% = 57 uM dopamine signal; activation, % (test concentration not listed); 360,000 tested, 0.084% active; AID 624465, 2012; in the data active = activation above about 40%; inconclusive = about 15% to 40%; inactive = below about 15%; note: compound concentration not given in the record; the text of the record calls up to 30% inactive
Target sequence (P14416 whole entry, looked up): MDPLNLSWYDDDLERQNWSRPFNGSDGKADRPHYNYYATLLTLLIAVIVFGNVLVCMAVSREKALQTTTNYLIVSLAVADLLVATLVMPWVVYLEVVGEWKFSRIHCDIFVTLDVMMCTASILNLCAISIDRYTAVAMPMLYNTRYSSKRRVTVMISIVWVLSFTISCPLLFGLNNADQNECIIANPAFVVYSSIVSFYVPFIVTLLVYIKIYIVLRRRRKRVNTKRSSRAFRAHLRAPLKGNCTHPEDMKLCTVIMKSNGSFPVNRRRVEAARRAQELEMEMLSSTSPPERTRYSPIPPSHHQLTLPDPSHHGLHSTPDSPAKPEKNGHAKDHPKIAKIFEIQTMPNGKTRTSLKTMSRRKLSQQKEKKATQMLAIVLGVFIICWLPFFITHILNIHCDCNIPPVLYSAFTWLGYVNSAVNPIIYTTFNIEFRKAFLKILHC
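DiscoveRx PathHunter D2 beta-arrestin cells (2,100/well) attached overnight, then compound-stimulated 90 min at 37 C in HBSS/10 mM HEPES/0.1% Tween-20 buffer; beta-galactosidase complementation read by luminescence after 1 h at ambient temperature. Dopamine 57 uM final (EC100) as control.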
Sfp PPTase inh – qHTS Assay for Inhibitors of Bacillus subtilis Sfp phosphopantetheinyl transferase (PPTase); Biochemical Sfp PPTase activity, qHTS; 4'-phosphopantetheinyl transferase ffp (Bacillus subtilis), Q9F4F7; 310,000 tested, 3.5% active; Potency, µM, inactives show max response, negative = inhibition, usual class: inhibitors; active = well fitted inhibition curve with a large enough effect; inconclusive = small, poorly fitted or top-dose-only effect, or another doubt; inactive = no such curve, though single readings can be large or run the other way;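 note: the enzyme is Sfp with the accession as filed and its product quenches rhodamine fluorescence; potency is the fitted concentration of half-maximal effect; 0% = enzyme reaction without inhibitor and -100% = no enzyme wells; top concentration of the series not given in the record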
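Sfp 15 nM + cpd, 15 min RT; start w/ rhodamine-CoA 5 uM, BHQ-2-YbbR 12.5 uM (final); 50 mM Hepes pH 7.6, 10 mM MgCl2, 0.01% NP-40, 0.01% BSA; read 525/598 nm at 0 and 30 min.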
ClpP mod – qHTS Assay for Activators of ClpP; ATP-dependent Clp protease proteolytic subunit (Bacillus subtilis (strain 168)), P80244; purified B. subtilis ClpP, FRET peptide cleavage, 20 min; Potency, µM (highest dose often 57.5 µM), for inactives: at the highest dose activity change, negative = active; 340,000 tested, 1.9% active; active = well fitted falling curve with a large enough effect; inconclusive = small, poorly fitted or top-dose-only effect; inactive = no such curve, though single readings can be large or run the other way; note: potency is the fitted concentration of half-maximal effect; the source files actives as falling curves though it sought activators and does not explain the sign; nearly all actives have a fitted effect of over 65% in size; many hits overshoot -100%
Target sequence (P80244 whole entry, looked up): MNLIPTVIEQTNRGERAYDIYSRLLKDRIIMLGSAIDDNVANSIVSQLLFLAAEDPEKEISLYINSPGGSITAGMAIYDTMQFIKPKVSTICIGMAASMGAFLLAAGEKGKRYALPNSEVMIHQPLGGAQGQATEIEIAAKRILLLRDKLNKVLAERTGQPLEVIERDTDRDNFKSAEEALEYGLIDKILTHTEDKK
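ClpP 10 microg/mL final, pH 8 Tris/KCl buffer with BSA, glycerol, Tween-20; compound pinned in; FRET-FV substrate; RT 20 min; Ex320/Em430; ΔFRET vs ADEP 5.8 microM, DMSO, no enzyme.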
Menin MLL FP FL – qHTS Assay for Inhibitors Targeting the Menin-MLL Interaction in MLL Related Leukemias: Competition With Fluorescein Labeled MLL-derived Peptide; AID 1766, 2009; FP activity change, % at 61.4 µM; Fluorescence polarization, fluorescein-MLL peptide displacement from menin; 290,000 tested, under 10 active; inconclusive = falling polarisation curve, or a change in total fluorescence; inactive = total fluorescence flat and polarisation flat or rising; no compound was filed as active; the % refers to the polarisation; negative = inhibition;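 note: % of control where 0% means no effect; inhibitors lower the polarisation; unlabelled MLL peptide was the positive control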
gsp antag – qHTS for Antagonists of gsp, the Etiologic Mutation Responsible for Fibrous Dysplasia/McCune-Albright Syndrome: qHTS | gsp-mutant cells, cAMP HTRF, 30 min; control for the full effect not named in the record | Potency, µM (highest dose often 76.9 µM), for inactives: top-dose activity change, negative = inhibition, usual class: inhibitors | 340,000 tested, 0.4% active | AID 624288, 2012; active = falling curve of any shape with a large fitted effect; inconclusive = falling curve, mostly with a smaller effect; inactive = flat or rising curve; cell line not stated here;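 note: intracellular cAMP measured with PDE inhibitor Ro 20-1724 present during compound exposure; potency is the fitted concentration of half-maximal effect; % is set by controls: 0 for no effect and ±100 for the full control effect; nearly all actives have a fitted effect of over 65% in size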
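HTRF cAMP read-out (cAMP-d2 plus anti-cAMP antibody-K in lysis buffer, 30 min RT). Before lysis, cells are exposed to compounds with […] for 30 min at 37C in DPBS containing Ca/Mg, BSA and Tween 20.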
* = called active by the depositor; ? = inconclusive; nt = no result given; [ ] = dose if it differs, or a comment.

Values run as follows: gsp ag, PINK1 modulator, D2 agonist, Sfp PPTase inh, ClpP mod, Menin MLL FP FL, gsp antag
1	COC(=O)CN1C(=O)C(O)(CC(=O)c2cccc(Br)c2)c2ccccc21 (configuration not stated)
 : -3%, 9.0%, -7.4, -7%, 1.1%, 1.5, 1%
2	Cc1c(Br)cc(C(=O)OC2CCN(C)CC2)c(C)c1C
 : -26%, -1.5%[38.3 µM], -0.6, 0%, -0.5%, 4.3, 13%
3	Cc1ccc(-n2c(=O)c3sccc3n(CC(=O)NCC3CCCO3)c2=O)cc1F (configuration not stated)
 : 27%, -0.8%, -2.0, 21%, nt, 2.2, 6%
4	CN(C)Cc1nc2ccccc2c(=O)n1CC#N
 : 8%[15.4 µM], 0.2%, 0.8, -2%, nt, -0.6, nt
5	CC(OC(=O)Cn1nnc2ccccc21)C(=O)NC1CCCC1 (configuration not stated)
 : ?, 1.1%, -0.6, 15%, nt, -2.4, -7%
6	C[C@H]1CN([C@@H](C)CO)C(=O)Cc2cc(NC(=O)CCC(F)(F)F)ccc2O[C@H]1CN(C)Cc1ccc(-c2ccccc2)cc1
 : nt, 0.3%, 0.9, nt, -2.4%, nt, -10%
7	O=C(COC(=O)c1cnc(Cl)c(Cl)c1)NC1CC1
 : 7%, -0.5%, -3.0, nt, -0.7%, nt, 8%
8	O=C(COc1ccccc1)OCc1csc(Nc2ccccc2)n1
 : -58%[inhibitor], 2.4%, -2.1, -4%, -0.4%, 3.8, 0%
9	CCc1c(C(=O)NCCc2ccc(OC)c(OC)c2)[nH]c(C)c1C(C)=O
 : -29%, 11%[38.3 µM], -2.1, 5%, -2.5%, 2.0, -16%
10	Cc1cc([N+](=O)[O-])nn1Cn1nc([N+](=O)[O-])cc1C
 : ?, -1.4%, 3.5, 0%, -2.8%, -1.9, 3%
11	O=C(CSc1nc(O)cc(=O)n1-c1ccc(Cl)c(Cl)c1)Nc1ccc(Cl)cc1Cl
 : -1%, 0.9%, -3.9, 13%, 0.6%, nt, -8%
12	CCN1C(=O)CC(N2CCN(c3ccc(C(=O)c4ccccc4)cc3)CC2)C1=O (configuration not stated)
 : -1%, -0.3%, -2.9, -12%, -17%, -1.3, -6%
13	C[C@H](CO)N1C[C@H](C)[C@H](CN(C)C(=O)Cc2ccccc2)OCc2cnnn2CCCC1=O
 : 4%, 1.2%, -5.3, nt, -2.5%, nt, nt
14	Cc1ccc(C(=O)NCCCNC(=O)c2ccco2)cc1C
 : -14%[15.4 µM], 3.7%, -2.7, 3%, nt, -2.2, 11%
15	CC(C)Cc1nnc(NC(=O)c2ccc3c(=O)n4c(nc3c2)CCC4)s1
 : 8%, -1.5%, -1.9, 20%, -1.9%, 1.1, -19%
16	Cc1onc(-c2ccccc2Cl)c1C(=O)OCC(=O)Nc1cccc(S(=O)(=O)N(C)C)c1
 : 4%[15.4 µM], 1.3%, -1.0, 0%, nt, 5.2, -40%
17	COC(=O)c1ccc(NC(=O)c2ccccc2-c2ccccc2C(=O)O)cc1
 : 18%, -1.3%, 2.1, 7%, -0.7%, -0.6, 9%
18	Cc1cc(C(=O)OCC(=O)NC2CCCC(C)C2C)c(C)o1 (configuration not stated)
 : -7%, 7.9%, 5.3, nt, -1.1%, nt, 0%
19	CCOc1ccc(CN(C(=O)c2cc3ccccc3oc2=O)C2CCS(=O)(=O)C2)cc1 (configuration not stated)
 : 1%[15.4 µM], 0.5%, -2.9, -2%, -4.7%, 1.2, 0%
20	CCCN(CCC)C(=O)CP(=O)(c1ccccc1)c1ccccc1
 : -25%, 6.7%[38.3 µM], -2.1, 4%, -1.2%, 5.2, 7%
21	CCOC(=O)C(Sc1ncn[nH]1)c1ccccc1 (configuration not stated)
 : -28%, -0.3%, -1.0, 16%, -3.6%, 0.7, 11%
22	CC(C)(C)c1cc(NC(=O)c2ccc(OC3CCCC3)cc2)no1
 : 7%, 7.3%, 0.7, -18%, -1.4%, 2.7, -16%
23	O=S(=O)(c1ccc(F)cc1)N1CCN(CC(O)COCC2CCCO2)CC1 (configuration not stated)
 : 1%[15.4 µM], -1.4%, -4.3, nt, -1.6%, nt, 4%
24	CCC(C)/C(C)=N/NC(=O)CSc1nc2ccccc2[nH]1 (configuration not stated)
 : 10%, 0.1%, 7.3, -26%, nt, -1.8, -1%
25	CCn1cc(/C=C/C(=O)NCc2c(C)nn(C)c2C)cn1
 : -36%[inhibitor], 2.0%[38.3 µM], 1.0, 2%, 0.5%, 6.0, -4%
26	CC1(C)Oc2ccccc2OC1(O)c1ccc2ccccc2n1 (configuration not stated)
 : -53%[inhibitor], 7.4%, -4.4, 21%, -0.8%, -1.4, -9%
27	CNC(=S)N/N=C/c1ccc(C(C)C)cc1
 : -34%[inhibitor], -1.8%, -3.7, nt, -5.3%, nt, -9%
28	Cc1cccc(N2CCN(C(=O)C3CCC(CNS(=O)(=O)c4cccs4)CC3)CC2)c1C (configuration not stated)
 : -13%, -2.0%, 8.6, 12%, nt, 4.7, -12%
29	O=C(NC(=S)Nc1cccc2ncccc12)c1cccs1
 : -3%, 5.0%, -9.0, 45µM*, 0.7%, -3.4, -9%
30	CC(OC(=O)c1ccc(F)c(S(=O)(=O)N2CCOCC2)c1)C(=O)NC1CCCC1 (configuration not stated)
 : -9%, -0.2%, -1.8, nt, 1.3%, nt, -4%
31	Cc1ccc(-n2cc(-c3ccccc3)[nH]c2=O)cc1F
 : 3%, -3.1%, -5.2, 5%, -7.7%, 5.8, -12%
32	O=C(Cc1cccs1)Nc1nnc(C2CC2)s1
 : 29%, -0.4%, -3.3, -3%, nt, 1.2, 2%
33	CC(C)(C)S(=O)(=O)N1Cc2cc(CO)cc(CCO)c2[C@@H]1CCO
 : nt, 0.0%, -1.1, nt, 0.3%, nt, 5%
34	Cc1ccnc(Nc2nc3ccccc3s2)n1
 : -42%[inhibitor], 1.8%, -2.1, -13%, nt, 3.9, 4%
35	CCc1ccc2oc(C(=O)NCc3ccncc3)c(C)c2c1
 : -20%, 0.6%[38.3 µM], -0.2, -20%, 28µM*, -1.2, -20%
36	Cc1onc(-c2ccccc2Cl)c1C(=O)N/N=C(\N)COc1ccc(Cl)cc1
 : -51%[inhibitor], 1.2%, -2.1, 14%, -2.0%, 1.3, -3%
37	O=C(NCc1ccccc1CN1CCCC1)c1cccc(S(=O)(=O)N2CCCC2)c1
 : 2%, 5.4%, -2.8, nt, -2.2%, nt, 6%
38	COc1ccc(-c2cn3cccnc3n2)cc1NC(=O)c1cccs1
 : -22%, 1.2%, 0.8, 19%, ?, 3.2, -12%
39	CC12CN3CC(C)(CN(C1)C3c1ccccc1Cl)C2O (configuration not stated)
 : -10%, 1.0%, -2.4, 2%, -4.9%, -1.8, -6%
40	O=c1[nH]c(=O)n(Cc2ccccc2)c2c1CCC2
 : -55%[inhibitor], 1.7%[38.3 µM], -2.4, -2%, -0.1%, -5.8, 10%
41	CC1CCCN(C(=O)c2ccc(NS(=O)(=O)c3ccc4[nH]c(=O)[nH]c4c3)cc2)C1 (configuration not stated)
 : -9%, -1.3%, -1.7, nt, -1.0%, nt, 3%
42	COc1ccc(-c2cc(C(=O)Nc3cc(C)on3)no2)cc1
 : 22%[15.4 µM], 1.4%, -0.6, 13%, nt, -5.5, 6%
43	CCn1cc(C(=O)NCCC(=O)NCCCO)c(=O)c2cc3c(cc21)OCO3
 : ?, -0.3%, 5.0, 3%, ?, -0.7, 2%
44	c1csc(C(c2nnnn2C2CCCC2)N2CCCC3(CCCCC3)C2)c1 (configuration not stated)
 : -5%, 1.8%, -0.2, 5%, -1.6%, 5.4, -12%
45	C=CCNC(=O)/C(C#N)=C/c1c(C)nn(-c2ccccc2)c1Cl
 : ?, 5.6%, 2.6, 79µM*, nt, -2.0, 1%
46	O=[N+]([O-])c1ccccc1C(O)Cc1ccccn1 (configuration not stated)
 : -36%[inhibitor], 0.2%, -2.7, nt, nt, nt, 5%
47	CC(OC(=O)Cc1c[nH]c2ccccc12)C(=O)Nc1ccccc1F (configuration not stated)
 : 7%[15.4 µM], 2.1%, -1.9, nt, -2.8%, nt, 1%
48	CCCNC(=O)C1CCN(c2cc(-c3ccccc3)nc3ncnn23)CC1
 : 3%, -0.1%, 4.2, 17%, -6.8%, -3.2, -14%
49	O=c1oc2cc(OCc3nn[nH]n3)ccc2c2c1CCCC2
 : 0%, -1.3%, -1.1, 14%, 24%, 0.5, -7%
50	COc1ccc(OCCC(=O)N2CCN(C)CC2)cc1
 : -1%, 1.1%, -4.9, 13%, 2.1%, -1.7, 8%
51	CCC(CO)NC(=O)c1cc2c(s1)CCC2 (configuration not stated)
 : 8%, -0.8%, -2.0, -30%, -2.6%, 4.5, 12%
52	CC1(C)N=C(c2cccc(F)c2)C(=O)N1
 : ?, 0.4%[38.3 µM], -3.5, 7%, -1.5%, 6.8, 5%
53	CCCCN(CCCC)c1nn[nH]n1
 : ?, -1.0%, 1.6, nt, nt, nt, -1%
54	Cc1c(OCC(=O)NCCN2CCOCC2)ccc2c3c(c(=O)oc12)CCC3
 : 19%, 1.2%, 0.9, 9%, nt, -2.9, -3%
55	Cc1cc(OCc2n[nH]c(=S)n2-c2ccccc2)ccc1Cl
 : 13%[15.4 µM], 2.3%, -0.2, 6%, -0.3%, 0.3, -25%
56	Cn1c(=O)c2[nH]c(NCC3CCCO3)nc2n(-c2ccccc2)c1=O (configuration not stated)
 : -32%[inhibitor], -1.5%, -2.9, -4%, 28µM*, 3.6, 8%

Screening results (PubChem)
